Screening results deposited in PubChem by several laboratories.
T cruzi repl = blocks replication of Trypanosoma cruzi; T. cruzi beta-gal in NIH3T3, luminescence, 90 h; inhibition, % (concentration not given with the values); 300,000 tested, 1.4% active; AID 1885;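 active means mean inhibition across valid replicates above about 55%, limit read from the data; inconclusive means mean below that limit but half or more replicates reach it; inactive means mean below it, under half of replicates reach it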;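 further: signal also drops with host cell toxicity which is not excluded here; 0% = plate median of DMSO wells and 100% = zero luminescence signal; higher percent means less beta-gal luminescence so fewer parasites; stock transfer was 50 nL into about 50 µL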
Vif A3G = HIV-1 Vif–A3G interaction blockers – biochemical, TR-FRET, GST-Vif 1-94, biotin-A3G peptide, dose response retest, primary screen (AID 1117319) | inhibition, %; hits with a dose series show IC50 in µM | 260,000 tested, 0.57% active | TR-FRET GST-Vif / biotin-A3G peptide binding; higher % means a stronger effect; test concentration not given here; strong numbers were not always called active;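 active means above the screen mean plus three standard deviations and confirmed in dose response; inconclusive means results disagree or hit not tested in dose response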;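 further: Vif residues 1-94 fused to GST binding biotinylated APOBEC3G peptide 110-148; 0% = full assay without inhibitor and 100% = GST in place of GST-Vif; retest series ran down from 100 µM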
Calb FLC = affects C. albicans growth with fluconazole | AID 1979 | C. albicans CaCi-2 (fluconazole-resistant clinical isolate) + fluconazole, Alamar Blue growth, 48 h | growth inhibition, % (concentration not given with the values) | 300,000 tested, 0.57% active;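 active means most replicates above 75%; inconclusive means exactly half above 75%; inactive means most below 75%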;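 further: all wells also contain fluconazole at 8 µg/ml as a sub-toxic cotreatment; 0% = median of DMSO wells and 100% = median of geldanamycin control wells; wells of about 8 µL received 7.5 nL stock; the first replicate is given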
rRNA inh HTS = inhibits bacterial ribosomal RNA function over humanized ribosomes | E. coli WT GFP vs humanized-ribosome RFP mutants, fluorescence, 24 h; hits give low values; DMSO median 0, no signal -100 | GFP signal change (wild-type ribosome), % (test concentration not listed) | 350,000 tested, 1.6% active;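 active means significant combined selectivity score with lowered wild-type GFP, culture density cut under 30%, mutant RFP and density less affected; inactive means any of these conditions unmet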; further: one replicate is shown; some compounds called inactive have numbers as strong as hits
AF4-AF9 inh = MLL-AF4/AF9 protein interaction inhibition; AlphaScreen, biotin-AF4 peptide binding to FLAG-AF9; 350,000 tested, 0.47% active; P42568; inhibition, % at 10 µM;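 active means every replicate reaching a set inhibition limit, whatever the replicate mean, cut at about 25% in these data; inconclusive means mean inhibition reaches that limit but some replicates miss it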;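 further: 0% = plate neutral control median and 100% = total signal loss; the record names both 10 and 1 µM as test concentration; the first replicate is given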
Target sequence (P42568 whole entry, looked up): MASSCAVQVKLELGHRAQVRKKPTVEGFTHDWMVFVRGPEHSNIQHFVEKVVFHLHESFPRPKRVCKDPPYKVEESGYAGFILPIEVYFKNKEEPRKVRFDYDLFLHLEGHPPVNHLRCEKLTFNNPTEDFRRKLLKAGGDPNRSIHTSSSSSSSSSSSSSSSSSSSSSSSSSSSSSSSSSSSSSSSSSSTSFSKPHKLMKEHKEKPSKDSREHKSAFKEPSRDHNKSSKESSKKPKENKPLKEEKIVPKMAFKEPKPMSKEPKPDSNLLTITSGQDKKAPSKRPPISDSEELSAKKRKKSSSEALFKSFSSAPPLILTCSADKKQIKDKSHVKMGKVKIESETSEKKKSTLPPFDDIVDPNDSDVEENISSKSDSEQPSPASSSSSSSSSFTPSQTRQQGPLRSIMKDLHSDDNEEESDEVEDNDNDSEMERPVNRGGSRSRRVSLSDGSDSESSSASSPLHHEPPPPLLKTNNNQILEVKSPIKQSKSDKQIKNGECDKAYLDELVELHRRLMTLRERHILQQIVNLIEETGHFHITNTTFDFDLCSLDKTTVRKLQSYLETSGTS
RanGTP-Impb inh = inhibitors of RanGTP-importin-beta interaction, primary screen, biochemical, FRET, CFP-Ran, YFP-importin-beta, homogeneous; cell-free CFP-Ran/YFP-importin-beta FRET ratio; inhibition, % (concentration not given with the values); 300,000 tested, 1.1% active; AID 2216;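 active means most replicates above 15%; inconclusive means exactly half above 15%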;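 further: 0% = DMSO wells and 100% = Ran loaded with GDP instead of GTP; wells of about 40 µL received 100 nL stock; the first replicate is given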
A1 inh = inhibitors of the anti-apoptotic protein A1, read as caspase activation | caspase activation, % (no concentration beside the values) | MEF A1-2A-BIM cells, Caspase-Glo 3/7 luminescence, 3 h; percent of clofoctol response, vehicle zero | 330,000 tested, 0.066% active | AID 2462;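 active means over half of replicate activation scores above 10%, or exactly half above 10 with the replicate mean above 10; inconclusive means replicate mean below 10 yet half the replicates above 10; inactive means over half of replicates below 10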;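 further: wells of about 30 µL received 50 nL stock; many hits fall short of the cut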
Beta cell apopt = beta cell apoptosis inhibition | INS-1E cytokine-induced death, ATP luminescence, 48 h; percent of positive-control rescue, neutral wells zero | protection from apoptosis, % (concentration not given with the values) | 300,000 tested, 0.8% active | AID 435005;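 active means all replicates at 75% or more, or half of them and the mean; inconclusive means half reach 75% but not the mean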;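 further: 0% = cytokine-treated negative control wells and 100% = positive control rescue; higher means more ATP so stronger rescue from cytokine killing; wells of about 40 µL received 100 nL stock; the first replicate is given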
rRNA inh HTS OD600 = second read-out of rRNA inh HTS, no call of its own (marks repeat the call); OD600 change, %; measured here: OD600 growth;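 optical density of the mix in the first replicate; 0 = DMSO median and -100 = no signal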
rRNA inh HTS RFP = recorded beside rRNA inh HTS, whose call it bears; RFP signal change, %; measured here: RFP humanized mutant strains;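 first replicate; 0 = DMSO median and -100 = no signal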
The depositor's hits bear a star; ? = inconclusive; . = not tested or not shown; & = joins results of further samples. Not all compounds are listed. The share of hits here may be higher or lower than overall.

Labels used below: A = T cruzi repl; B = Vif A3G; C = Calb FLC; D = rRNA inh HTS; E = rRNA inh HTS OD600; F = rRNA inh HTS RFP; G = AF4-AF9 inh; H = RanGTP-Impb inh; I = A1 inh; J = Beta cell apopt
O=C(CSc1nc(-c2ccco2)cc(C(F)(F)F)n1)N1CCCc2ccccc21
  A = 13	B = -9%&-15%	C = -4	D = .	E = .	F = .	G = .	H = -0.4	I = 0.5	J = 1

Cc1nc(N)nc2c1CCCC2
  A = -20	B = 3%	C = 3	D = .	E = .	F = .	G = -2.6	H = -0.3	I = 0.6	J = -4

O=C(CCN1C(=O)c2ccccc2C1=O)N1CCN(c2ccccc2)CC1
  A = -11	B = 15%	C = -14	D = .	E = .	F = .	G = .	H = 3.7	I = 0.1	J = 1

COc1cccc(-n2cc(CNC(=O)C3CCC(=O)N(C4CC4)C3)cn2)c1 (stereo unspecified)
  A = -15	B = .	C = 5	D = 20	E = 16	F = 1.4	G = -3.8	H = -0.7	I = 0.2	J = 0

COc1cc(CNn2cn[nH]c2=S)cc(Cl)c1OCc1ccccc1
  A = 1	B = 3%	C = 15	D = .	E = .	F = .	G = .	H = 5.5	I = 0.2	J = 2

O=C(NCc1cccnc1)C1CC(=O)N(C2CCCCC2)C1 (stereo unspecified)
  A = 2	B = 0%	C = 0	D = 0	E = 12	F = -0.9	G = .	H = -0.7	I = -0.1	J = -3

COc1ccc(OC)c(NC(=S)N2CCC(C(O)(c3ccccc3)c3ccccc3)CC2)c1
  A = 3	B = .	C = 1	D = .	E = .	F = .	G = .	H = 3.7	I = -0.2	J = -8

CCC(C)NS(=O)(=O)c1ccc(S(=O)(=O)Nc2cc3c(cc2C(C)=O)OCO3)cc1 (stereo unspecified)
  A = -5	B = ?	C = -4	D = .	E = .	F = .	G = .	H = -4.2	I = -0.3	J = -3

COc1ccc(NC(=O)CN(C)C(=O)c2cccc(S(=O)(=O)Nc3ccccc3Cl)c2)cc1
  A = 1	B = .	C = -8	D = -2	E = -1	F = -0.6	G = -2.3	H = .	I = 0.0	J = 2

CCOCCCNC(=O)C(NC(=O)C1CCC(=O)N1)c1ccc(C)cc1 (stereo unspecified)
  A = -7	B = 8%	C = -1	D = .	E = .	F = .	G = .	H = 3.0	I = 0.8	J = -4

Nn1c(Cc2ccccc2F)nnc1SCCOc1ccc(Cl)cc1
  A = 16	B = 21%	C = -16	D = -42	E = -53	F = 7.7	G = 1.5	H = ?	I = 2.0	J = -7

O=C(CN1CCN(c2ccc(Cl)cc2)CC1)NCc1ccccc1
  A = 9	B = -4%	C = 7	D = .	E = .	F = .	G = .	H = 0.1	I = -0.2	J = 4

Cc1ccc(/C=N/N=C/c2ccc(C)cc2)cc1
  A = 7	B = 1%	C = -7	D = 3	E = 1	F = -2.1	G = -2.6	H = 2.4	I = 0.4	J = -8

COc1ccc(C(=O)Nc2cc(-c3ccc(C)cc3)no2)cc1
  A = 9	B = -5%	C = 2	D = 6	E = 1	F = -5.4	G = -10.0	H = 0.9	I = -1.0	J = -8

O=c1c2c(-c3ccc(Cl)cc3)csc2nc2n1CCC2
  A = -3	B = -1%	C = ?	D = .	E = .	F = .	G = .	H = -1.1	I = 1.0	J = -1

CC(CC(=O)Nc1ccc(Cl)c([N+](=O)[O-])c1)c1ccccc1 (stereo unspecified)
  A = 18	B = 8%	C = 5	D = .	E = .	F = .	G = .	H = 3.9	I = 0.2	J = 8

CCOc1ccc(N(CC(=O)Nc2ccc(OC)cc2)S(C)(=O)=O)cc1
  A = -6	B = 20%	C = 3	D = .	E = .	F = .	G = .	H = 4.4	I = -0.5	J = 1

Cc1ccc(-c2nsc(SCC(=O)Nc3ccc4c(c3)OCO4)n2)cc1
  A = 13	B = .	C = -3	D = .	E = .	F = .	G = .	H = 1.8	I = 0.2	J = -6

Cc1[nH]c2ccccc2c1/C=N/NC(=O)CNC(=O)c1ccc2c(c1)OCCO2
  A = -9	B = -6%	C = 4	D = 7	E = -1	F = -0.1	G = -6.8	H = -4.8	I = -0.4	J = .

Cc1cc(C)c(OCCN2CCCC2)c(Cl)c1
  A = 41	B = 10%	C = -3	D = -1	E = 3	F = 0.6	G = 1.4	H = 1.5	I = 0.1	J = .

CCOc1ccc(-n2c(=O)c3c(C)c(C(=O)N(C)C)sc3n(CC(=O)Nc3ccccc3F)c2=O)cc1
  A = -16	B = 1%	C = 4	D = 12	E = 9	F = -9.7	G = -5.9	H = 19*	I = -0.3	J = 3

Cc1c(Cl)cccc1NC(=S)NNS(=O)(=O)c1ccc([N+](=O)[O-])cc1
  A = -12	B = .	C = 8	D = -9	E = 12	F = -1.2	G = 2.5	H = 4.7	I = 0.3	J = -14

c1ccc(-n2c3ccccc3c3ccccc32)cc1
  A = 11	B = -4%	C = 1	D = 7	E = 19	F = 4.5	G = -1.2	H = -0.1	I = 0.7	J = 4

CCC(C)(C(=O)Nc1c(C)cccc1C)N(C)C(=O)c1ccc2ccccc2n1 (stereo unspecified)
  A = 1	B = 3%	C = 0	D = -1	E = 2	F = -6.4	G = -6.5	H = 6.9	I = 0.6	J = 2

CCCCNc1nc2ccccc2[nH]1
  A = 27	B = 1%	C = 6	D = .	E = .	F = .	G = .	H = 6.2	I = 0.3	J = -1

Cn1c(CN2CCCC2)nc2cc(NC(=O)C3CCCCC3)ccc21
  A = -29	B = -3%	C = 4	D = .	E = .	F = .	G = .	H = 4.4	I = -0.1	J = 6

O=C(CN1CCCCCCC1)N/N=C/c1ccc(F)cc1F
  A = -9	B = 3%	C = -4	D = .	E = .	F = .	G = .	H = 1.8	I = 0.2	J = 4

CCc1ccc(NC(=O)CN(C)S(=O)(=O)c2ccc3[nH]c(=O)oc3c2)cc1
  A = -7	B = -3%	C = 48	D = .	E = .	F = .	G = .	H = -4.4	I = -1.2	J = -1

O=C(Nc1ccc(S(=O)(=O)N2CCCCC2)cc1)C1CCCN(C(=O)c2ccc(Cl)cc2)C1 (stereo unspecified)
  A = 27	B = ?	C = 9	D = .	E = .	F = .	G = .	H = 0.4	I = 0.6	J = 16

NC(N)=N/N=C/c1ccc2cccc(OCc3ccccc3)c2n1
  A = 57*	B = -22%	C = -12	D = .	E = .	F = .	G = 10	H = 2.5	I = 0.1	J = 30

CCN(C(=O)CCS(=O)(=O)c1cccc2nsnc12)c1cccc(C)c1
  A = 5	B = 2%	C = 1	D = 8	E = 3	F = 4.8	G = -3.2	H = 0.8	I = 0.8	J = -7

C=CCn1c(C)cc(C(=O)Cn2c(C(C)O)nc3ccccc32)c1C (stereo unspecified)
  A = 0	B = 2%	C = -15	D = 10	E = 7	F = 3.8	G = 4.8	H = 1.6	I = 0.4	J = 10

CCCNS(=O)(=O)c1ccc(OCC(=O)NCc2ccc3c(c2)OCO3)cc1
  A = -3	B = 3%	C = 2	D = .	E = .	F = .	G = .	H = -1.4	I = -0.5	J = -10

COc1ccc(C(=O)N/C(=C\c2ccco2)C(=O)NCc2ccco2)cc1
  A = 3	B = .	C = 2	D = 16	E = -2	F = 0.1	G = -7.7	H = 3.1	I = -0.1	J = -3

O=C(NCCCN1CCCC1=O)C(=O)Nc1cccc(F)c1
  A = -5	B = 5%	C = -1	D = 7	E = 8	F = -2.0	G = -0.9	H = -0.9	I = -1.0	J = 4

COc1ccccc1N(CC(=O)N/N=C/c1c(O)ccc2ccccc12)S(C)(=O)=O
  A = 7	B = ?	C = -3	D = .	E = .	F = .	G = .	H = 1.7	I = 0.2	J = 87*

Cc1cccc(NC(=O)C2CC(=O)n3ncnc3N2)c1 (stereo unspecified)
  A = -27	B = -2%	C = -3	D = 3	E = 6	F = -3.3	G = 0.8	H = -0.9	I = 0.5	J = -6

Cc1ccc(S(=O)(=O)N(C)c2nc3ccccc3n3c(C(C)C)nnc23)cc1
  A = 1	B = .	C = 0	D = 6	E = -6	F = -1.1	G = -0.4	H = 2.1	I = -0.7	J = -6

Fc1cccc(Cl)c1CSc1ncn[nH]1
  A = -16	B = -3%	C = 0	D = .	E = .	F = .	G = .	H = -0.2	I = -0.1	J = -6

O=[N+]([O-])c1ccc(-c2csc(N3CCCCCC3)n2)cc1
  A = 8	B = .	C = 1	D = 15	E = 6	F = 2.0	G = -0.2	H = -3.0	I = 0.0	J = 10

CCOc1ccc(C(=O)NCc2ccccn2)cc1
  A = -18	B = 0%	C = 16	D = 6	E = 9	F = -5.8	G = -23	H = 5.3	I = 0.5	J = -1

CN(CC(=O)Nc1ccccc1C(=O)NC1CC1)Cc1cccs1
  A = .	B = 2%	C = .	D = .	E = .	F = .	G = 2.3	H = .	I = -0.1	J = -1

O=C(COc1ccc(F)cc1)Nc1cc(S(=O)(=O)N2CCCCC2)ccc1N1CCCCC1
  A = 55*	B = -1%	C = -5	D = 10	E = 13	F = 3.4	G = -13	H = 1.0	I = 0.0	J = 18

CN(C)CCCNC(=O)c1ccc(Cl)c(S(=O)(=O)N(C)c2ccccc2)c1
  A = 65*	B = 16%	C = -5	D = .	E = .	F = .	G = .	H = 2.2	I = 0.5	J = -2

Arranged by molar mass (rising): seven of the compounds above
Labels used below: A = T cruzi repl; B = Vif A3G; C = Calb FLC; D = rRNA inh HTS; E = rRNA inh HTS OD600; F = rRNA inh HTS RFP; G = AF4-AF9 inh; H = RanGTP-Impb inh; I = A1 inh; J = Beta cell apopt
O=C(NCc1cccnc1)C1CC(=O)N(C2CCCCC2)C1 (stereo unspecified)
  A = 2	B = 0%	C = 0	D = 0	E = 12	F = -0.9	G = .	H = -0.7	I = -0.1	J = -3

O=c1c2c(-c3ccc(Cl)cc3)csc2nc2n1CCC2
  A = -3	B = -1%	C = ?	D = .	E = .	F = .	G = .	H = -1.1	I = 1.0	J = -1

O=C(CN1CCN(c2ccc(Cl)cc2)CC1)NCc1ccccc1
  A = 9	B = -4%	C = 7	D = .	E = .	F = .	G = .	H = 0.1	I = -0.2	J = 4

CCOCCCNC(=O)C(NC(=O)C1CCC(=O)N1)c1ccc(C)cc1 (stereo unspecified)
  A = -7	B = 8%	C = -1	D = .	E = .	F = .	G = .	H = 3.0	I = 0.8	J = -4

Cc1ccc(S(=O)(=O)N(C)c2nc3ccccc3n3c(C(C)C)nnc23)cc1
  A = 1	B = .	C = 0	D = 6	E = -6	F = -1.1	G = -0.4	H = 2.1	I = -0.7	J = -6

Cc1c(Cl)cccc1NC(=S)NNS(=O)(=O)c1ccc([N+](=O)[O-])cc1
  A = -12	B = .	C = 8	D = -9	E = 12	F = -1.2	G = 2.5	H = 4.7	I = 0.3	J = -14

CN(C)CCCNC(=O)c1ccc(Cl)c(S(=O)(=O)N(C)c2ccccc2)c1
  A = 65*	B = 16%	C = -5	D = .	E = .	F = .	G = .	H = 2.2	I = 0.5	J = -2
